Mtb betalactam: beta-lactam sensitization of Mtb H37Rv | M. tuberculosis H37Rv growth with meropenem, percent inhibition; hits of this screen are not shown here | inhibition, % at 25 µM | hit rate 0.27% among 330,000 | AID 434955;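 active means about 74% or more and at least 40 points above the plate without the antibiotic, then above 30% in a dose series; inconclusive means first-round hits that could not be retested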;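 further: growth measured after seven days incubation then overnight dye step; 0% = bacteria only wells and 100% = bacteria with antibiotic; twin plates without the antibiotic show which effects depend on it; some results filed as inactive read as strong as hits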
Mtb growth: M. tuberculosis H37Rv growth inhibitors, H37Rv strain (AID 1626); inhibition, % at 10 µM; hits with a dose series show IC50 in µM; hit rate 0.95% among 220,000; M. tuberculosis H37Rv growth inhibition; higher % means a stronger effect;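 active means confirmed in a dose series; inconclusive means inhibition above 80% but not taken into the dose series; inactive means below 80% or under 30% at every dose of the series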;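 further: bacteria incubated seven days before Alamar blue readout; 0% = bacteria only wells and 100% = bacteria with antibiotic wells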
YopH inh: YopH (Yersinia) phosphatase inhibition; fluorescence Ex485/Em525; inhibition, %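 (about 10 µM by stock and volumes)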; hit rate 0.16% among 140,000;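 active means inhibition of 50% or more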;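 further: controls were vehicle for no effect and minimum signal wells for full effect; inactives centre near -20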
Arbovirus anti: arbovirus infection inhibition; arbovirus infection cell-based antiviral screen; inhibition, % at 10 µM; hit rate 0.37% among 200,000; AID 1251;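 active means inhibition from about 30%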;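 further: bluetongue infection of BSR cells; cell survival read as ATP light after 72 h; 0% = infected wells without compound and 100% = uninfected wells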
RecA intein inh: Mtb RecA intein splicing inhibition | P9WHJ3 | cell-free RecA intein splicing, fluorescence | inhibition, %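 (about 9 µM by stock and volumes)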 | hit rate 0.75% among 290,000 | AID 2221; in the data active means inhibition above about 30%; inconclusive means no clear call, values can overlap the other calls;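 further: 0% = vehicle wells and 100% = reference inhibitor control wells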
Target sequence (P9WHJ3 whole entry, looked up): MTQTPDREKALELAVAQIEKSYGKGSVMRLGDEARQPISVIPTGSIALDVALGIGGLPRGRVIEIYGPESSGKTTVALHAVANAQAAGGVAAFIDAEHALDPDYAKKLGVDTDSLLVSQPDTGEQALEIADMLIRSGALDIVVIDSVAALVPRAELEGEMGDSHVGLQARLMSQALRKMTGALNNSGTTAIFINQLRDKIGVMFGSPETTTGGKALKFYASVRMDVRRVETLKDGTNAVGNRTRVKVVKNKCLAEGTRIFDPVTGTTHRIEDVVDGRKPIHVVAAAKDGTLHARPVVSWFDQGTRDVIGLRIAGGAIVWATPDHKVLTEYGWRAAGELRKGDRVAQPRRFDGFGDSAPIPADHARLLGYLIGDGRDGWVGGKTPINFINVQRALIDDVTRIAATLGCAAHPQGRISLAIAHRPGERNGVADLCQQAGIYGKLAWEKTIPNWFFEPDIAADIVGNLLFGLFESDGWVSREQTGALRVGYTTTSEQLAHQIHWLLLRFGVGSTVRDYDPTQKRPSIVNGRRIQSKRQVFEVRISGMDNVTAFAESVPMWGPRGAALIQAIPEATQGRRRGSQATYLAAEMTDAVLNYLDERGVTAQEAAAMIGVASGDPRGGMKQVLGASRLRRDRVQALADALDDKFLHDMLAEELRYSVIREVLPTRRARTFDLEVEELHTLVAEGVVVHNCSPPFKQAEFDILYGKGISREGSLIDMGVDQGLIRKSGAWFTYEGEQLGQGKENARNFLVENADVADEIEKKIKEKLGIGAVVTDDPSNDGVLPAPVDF
Arbovirus anti repeat: also measured in Arbovirus anti; calls as there; inhibition, %; measured here: 10K subset replicate screen; many hits read low in the repeat;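 first of two repeat runs on a subset; 0% = infected and 100% = uninfected wells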
* = called active by the depositor; ? = inconclusive; . = not tested or not shown. Some of the compounds tested (hit frequency here may not be typical).

SMILES	Mtb betalactam	Mtb growth	YopH inh	Arbovirus anti	RecA intein inh	others
CCCC(=O)NC1=C(C#N)C2(CCCC2)Cc2ccccc21	-2	-4%	-1	2	1.4
CCCn1cc(NC(=O)C2CC(c3cccc(Br)c3)=NO2)cn1 (stereo unspecified)	5	-1%	-31	6	-0.5
CCOC(=O)c1c(C)nc2ccc(C)cn12	12	17%	4	2	8.2
CCOn1c(=O)c(-c2ccc(C)cc2)[n+]([O-])c2ccccc21	-4	.	.	.	-2.7
O=C(CSc1nnnn1Cc1ccccc1)Nc1ccc2c(c1)OCO2	-9	2%	9	-8	0.7
S=C1NC2(CCCC2)N=C1c1ccccc1	-3	-7%	.	-1	0.0
Nc1c(-c2cccs2)cnn1-c1nc(-c2ccc(Cl)cc2Cl)cs1	-3	-23%	-31	-30	-1.4
CCOC(=O)c1sc(N=NC2=C(O)CCCC2=O)c(C(=O)OCC)c1C	-4	-3%	.	-6	-2.4
CCn1c2ccccc2c2nnc(SCC(=O)N(C)C3CCS(=O)(=O)C3)nc21 (stereo unspecified)	-5	-1%	-11	5	-1.5
CCC(=O)c1ccc(OCC(=O)OCC(=O)Nc2sccc2C(N)=O)cc1	0	0%	.	-5	-1.3
CCOC(=O)C1=C(c2ccccc2)Nc2ncnn2C1c1ccc(OC)c(OC)c1OC (stereo unspecified)	-1	2%	-21	9	0.4
COCc1nnc(NC(=O)CC(c2ccccc2)c2ccccc2)s1	-4	.	6	2	6.0
COc1ccc(-c2csc(NC(=S)NC(=O)c3ccccc3)n2)cc1Br	-5	0%	.	.	-1.0
COC(=O)c1cc(=O)n(-c2ccc(F)cc2)c(=Nc2ccc(F)cc2)s1	100	?	-35	-31	2.0
CCn1c(=O)c(C(=O)NNC(=O)c2ccccc2Cl)c(O)c2ccccc21	3	.	.	.	-0.4
NC(=O)c1cc(C(=O)c2ccc(Cl)cc2Cl)c[nH]1	-3	-9%	.	6	1.3
COC(=O)c1c(NC(=O)c2ccccc2[N+](=O)[O-])sc2c1CC(C)(C)NC2(C)C	4	5%	1	5	3.5
CC(C)Cc1nnc(NC(=O)Cc2ccc([N+](=O)[O-])cc2)s1	7	-4%	-28	4	-0.4
COc1ccccc1C(=O)NNC(=O)c1ccc(NC(=O)c2ccccc2)cc1	2	-3%	.	10	3.4
CC(C)(C)n1cn[nH]c1=S	-3	-5%	.	.	1.8
COc1cc(C)c(Cl)cc1S(=O)(=O)N1CCCC1	-2	1%	.	3	0.0
CS(=O)(=O)N1CCN(c2ccccc2NC(=O)c2cccnc2)CC1	-12	-2%	-26	6	0.3
Cc1cc(NC(=O)COC(=O)[C@@H](NS(=O)(=O)c2ccc(Br)cc2)C(C)C)no1	-11	-4%	.	.	-2.1
CCN1CCc2c(OCC(=O)Nc3ccc(C)cc3)cccc2C1=O	-15	.	.	.	0.6
COc1ccc2nc(N3C(=O)CC(C(C)c4ccccc4)C3=O)sc2c1 (stereo unspecified)	-2	-4%	-32	7	4.0
OCCNCC(O)CN1c2ccccc2Sc2ccccc21 (stereo unspecified)	-9	.	.	.	-0.5
O=C(O)c1ccc2c(c1)S(=O)(=O)N=C1CCCCCN12	5	3%	.	-2	7.0
CCCOc1nnnn1-c1ccccc1	5	5%	-27	4	-1.8
Cn1c(-c2ccc(CN3CCCCC3)o2)nc2ccccc21	0	.	-33	1	1.6
Cc1ccc(C2CC(=O)NC(SCc3ccccc3)=C2C#N)cc1 (stereo unspecified)	-2	-9%	1	-1	.
O=C(Cn1nc(-c2ccccc2)ccc1=O)NCCN1CCN(Cc2ccccc2)CC1	8	-12%	2	7	-3.5
CC(Oc1ccc(Cl)cc1)C(=O)NCCN1C(=O)S/C(=C\c2cccnc2)C1=O (stereo unspecified)	6	4%	29	3	11
Cc1c(C(=O)NCc2ccc3c(c2)OCO3)sc2nc(-c3ccc(F)cc3)cn12	-2	9%	3	-3	1.6	Arbovirus anti repeat=-4
CC(CS(=O)(=O)c1ccc2c(c1)NC(=O)CS2)C(=O)NCc1ccccc1Cl (stereo unspecified)	-6	.	.	.	2.5
Cc1n[nH]c(=O)nc1NCc1ccc(Cl)cc1	-2	0%	-31	5	-0.1
COc1ccc2oc(=O)c(C(=O)O)cc2c1	-16	1%	-16	1	-3.4
O=C(Nc1ccc(OC(F)(F)F)cc1)c1ccc2ccccc2n1	2	-1%	.	14	20
CC(C)c1ccc(NC2CCCN(C(=O)CCc3cnn(C)c3)C2)cc1 (stereo unspecified)	-3	.	.	.	-2.8
Cc1nc(NCCc2ccc(S(N)(=O)=O)cc2)c2c3c(sc2n1)CCC3	19	-1%	-21	0	-1.1
O=C(CSc1ccccc1)Nc1ccc(-c2nc3ccccc3[nH]2)cc1	9	6%	-23	-2	-0.5

Next section (2 carried over from the part before).
SMILES	Mtb betalactam	Mtb growth	YopH inh	Arbovirus anti	RecA intein inh	others
Cc1nc(NCCc2ccc(S(N)(=O)=O)cc2)c2c3c(sc2n1)CCC3	19	-1%	-21	0	-1.1
O=C(CSc1ccccc1)Nc1ccc(-c2nc3ccccc3[nH]2)cc1	9	6%	-23	-2	-0.5
CSc1ccccc1C(=O)NC1CCCCCC1	8	-4%	-23	-6	.
Cc1nn(-c2ccccc2)c(N)c1Sc1cccc([N+](=O)[O-])c1	2	9%	-9	11	.
O=C(NCc1ccccc1F)C12CC3CC(CC(C3)C1)C2	-5	.	.	.	2.3
COc1ccccc1-c1noc2ncnc(Nc3cccc(C)c3C)c12	-2	.	.	.	2.2
CN(C)c1ccc(NC(=O)/C=C/c2ccccc2Cl)cc1	-2	5%	-2	-8	-1.2
O=C(OCc1ccccc1)N1CCc2ccccc21	10	.	.	.	4.7
CCc1c(C)sc(NC(=O)C2CC2)c1C(=O)OC(C)C	62	14%	-14	-4	8.8
O=C(O)c1ccc2c(c1)SC1=NS(=O)(=O)CCN12	-1	1%	.	.	-1.1
COc1cc(/C=C/C(=O)NC(=O)c2ccccc2O)ccc1OC(C)=O	3	.	.	.	2.5
CCC(=O)Nc1c(C)n[nH]c1C	0	5%	-27	8	-0.3
C=CCOc1c(CNc2cccc(C(=O)O)c2)cccc1OC	-1	-3%	-34	-1	-2.4
COC(=O)c1cn(NC(=O)c2ccc([N+](=O)[O-])c(C)c2)c(=O)c2ccccc12	-5	-8%	.	-27	2.6
CCOC(=O)Cc1csc(NC(=O)c2csc3c2CCCC3)n1	?	9.2µM*	-35	6	11
CCOC1OC(=O)C(Cl)=C1Nc1ccc(C)cc1C (stereo unspecified)	8	14%	8	-9	0.1
COc1ccccc1Oc1nc(-c2cccnc2)nc2ccccc12	-9	14%	.	13	0.0
CN(C)Cc1nc2c(c(=O)[nH]1)C1(CCCCC1)Cc1ccccc1-2	98	?	-36	-17	2.3
COc1cccc(OCc2cc(C(=O)NCc3ccc4c(c3)OCO4)no2)c1	4	.	.	.	-2.3
CCc1c(O)nc(SCC(=O)Nc2nc3ccccc3s2)n(-c2ccccc2)c1=O	1	-13%	.	.	1.3
CSCC(=O)N1CCC(Oc2cccc(C(=O)NCc3ccccn3)c2)CC1	4	.	.	.	-0.1
COc1ccc(C2CC2C(=O)c2ccccn2)cc1 (stereo unspecified)	0	5%	.	-8	1.1

Structures above that contain a cyano group:
SMILES	Mtb betalactam	Mtb growth	YopH inh	Arbovirus anti	RecA intein inh	others
CCCC(=O)NC1=C(C#N)C2(CCCC2)Cc2ccccc21	-2	-4%	-1	2	1.4
Cc1ccc(C2CC(=O)NC(SCc3ccccc3)=C2C#N)cc1 (stereo unspecified)	-2	-9%	1	-1	.

4 compounds picked at random from the list so far:
SMILES	Mtb betalactam	Mtb growth	YopH inh	Arbovirus anti	RecA intein inh	others
CS(=O)(=O)N1CCN(c2ccccc2NC(=O)c2cccnc2)CC1	-12	-2%	-26	6	0.3
COc1ccc(-c2csc(NC(=S)NC(=O)c3ccccc3)n2)cc1Br	-5	0%	.	.	-1.0
CCc1c(C)sc(NC(=O)C2CC2)c1C(=O)OC(C)C	62	14%	-14	-4	8.8
COc1cc(/C=C/C(=O)NC(=O)c2ccccc2O)ccc1OC(C)=O	3	.	.	.	2.5

The list goes on.
SMILES	Mtb betalactam	Mtb growth	YopH inh	Arbovirus anti	RecA intein inh	others
Cc1cc(=O)oc(C)c1C(=O)n1nc(C)c2c1C[C@@H]1[C@H]2C1(C)C	6	1%	-11	1	0.5
CCOc1cccc(C(=O)Nc2ccccc2N2CCN(C(=O)C(C)C)CC2)c1	1	-12%	-39	35*	3.7
Cc1cc(C)cc(N(CCC#N)C(=O)COC(=O)c2nc3nc(C)cc(C)n3n2)c1	-2	.	.	.	-0.2
COc1ccc(CCNC(=O)c2ccc3nc(N4CCOCC4)sc3c2)cc1OC	-6	.	.	.	1.2
S=C1NCCOCCOCCOCCOCCNC(=S)N2CCOCCOCCN1CCOCC2	-3	-6%	.	7	-1.4
Cn1cnc([N+](=O)[O-])c1Sc1ncccc1N	0	-3%	4	-7	3.4
CS(=O)(=O)N1CCCC(C(=O)N2CCN(c3cccc(Cl)c3)CC2)C1 (stereo unspecified)	-3	-20%	.	2	-3.1
CCN1CCN(C(=O)CCc2nnc(CCc3c[nH]c4ccccc34)o2)[C@@H](C)C1=O	-14	.	.	.	0.2
CCOc1ccc(N(CC(=O)N2CCCC2)S(=O)(=O)c2ccc(Cl)cc2)cc1	-9	.	.	.	0.7
CN(C)/C=N/c1cnc(C(=O)c2ccc(Cl)cc2)n1C	6	8%	-2	6	-1.0
CN(C)C(=O)c1ccc(-n2cnc3ccccc3c2=O)cc1	-3	1%	.	12	1.5
O=C(Nc1ccc(F)c(Cl)c1)Nn1cnnc1	3	.	.	.	4.6
CCC(C)c1ccc(NC(=O)c2[nH]c(C)c(C(C)=O)c2C)cc1 (stereo unspecified)	-5	.	.	.	2.7
CC(c1nc2ccccc2n1Cc1ccccc1)N1CCCCC1 (stereo unspecified)	3	.	.	.	3.0
Cc1c(C2CC(=O)N(c3ccccc3)C2=O)[nH]n(-c2ccccc2)c1=O (stereo unspecified)	38	-1%	-24	-3	15
NC(=O)COc1ccc2c3c(c(=O)oc2c1)CCCCC3	80	-3%	-4	-8	-4.7
CCc1nn2c(=O)c(S(=O)(=O)Nc3ccc(Cl)cc3)c(C)nc2s1	-7	.	.	.	-1.6
CCCCCN(C(=O)CCC(=O)OCC(=O)NC1CCC(C)CC1)c1c(N)n(CCCC)c(=O)[nH]c1=O (stereo unspecified)	-5	.	.	.	-1.9
Cc1nnc(NC(=O)c2ccccc2-c2ccccc2C(=O)O)s1	-5	2%	.	.	-2.1

Part of the list above in order of molecular weight, ascending.
SMILES	Mtb betalactam	Mtb growth	YopH inh	Arbovirus anti	RecA intein inh	others
Cn1cnc([N+](=O)[O-])c1Sc1ncccc1N	0	-3%	4	-7	3.4
NC(=O)c1cc(C(=O)c2ccc(Cl)cc2Cl)c[nH]1	-3	-9%	.	6	1.3
CN(C)/C=N/c1cnc(C(=O)c2ccc(Cl)cc2)n1C	6	8%	-2	6	-1.0
CC(C)Cc1nnc(NC(=O)Cc2ccc([N+](=O)[O-])cc2)s1	7	-4%	-28	4	-0.4
COc1ccc(-c2csc(NC(=S)NC(=O)c3ccccc3)n2)cc1Br	-5	0%	.	.	-1.0

Screens as filed in PubChem BioAssay.
